TRPV1 PAM: enhances activation of the human vanilloid receptor TRPV1 | Q8NER1 | TRPV1-expressing cells, Fluo-8 calcium influx, capsaicin EC20 potentiation; host cell line not named in the record; control for the full effect not named in the record | potentiation, % at 8.33 µM | 320,000 tested, 0.02% active | AID 540277; active means potentiation above 80%; inconclusive means 30% to 80%; inactive means below 30%; further: 0% is about no effect
Target sequence (Q8NER1 whole entry, looked up): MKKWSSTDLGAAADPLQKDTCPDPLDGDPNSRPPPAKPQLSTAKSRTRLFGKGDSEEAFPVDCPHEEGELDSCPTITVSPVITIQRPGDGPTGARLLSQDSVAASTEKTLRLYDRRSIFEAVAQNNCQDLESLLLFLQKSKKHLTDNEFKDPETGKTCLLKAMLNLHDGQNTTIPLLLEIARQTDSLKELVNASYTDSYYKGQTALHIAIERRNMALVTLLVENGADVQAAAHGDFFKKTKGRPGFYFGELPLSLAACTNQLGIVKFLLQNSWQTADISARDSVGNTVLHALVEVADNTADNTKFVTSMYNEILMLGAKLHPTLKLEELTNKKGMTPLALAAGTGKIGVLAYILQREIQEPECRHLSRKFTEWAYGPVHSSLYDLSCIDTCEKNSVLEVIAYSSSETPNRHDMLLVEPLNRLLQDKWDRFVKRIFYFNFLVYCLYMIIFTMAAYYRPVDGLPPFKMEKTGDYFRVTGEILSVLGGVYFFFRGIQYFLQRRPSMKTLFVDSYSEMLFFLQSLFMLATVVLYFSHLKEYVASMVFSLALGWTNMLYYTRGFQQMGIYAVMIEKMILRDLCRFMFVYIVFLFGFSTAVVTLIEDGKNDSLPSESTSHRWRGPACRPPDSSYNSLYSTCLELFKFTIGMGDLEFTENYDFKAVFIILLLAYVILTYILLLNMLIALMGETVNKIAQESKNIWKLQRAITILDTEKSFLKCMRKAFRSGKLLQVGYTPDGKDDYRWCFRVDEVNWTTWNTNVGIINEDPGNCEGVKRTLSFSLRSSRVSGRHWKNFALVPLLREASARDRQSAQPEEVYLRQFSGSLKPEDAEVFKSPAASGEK
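Fluo-8 calcium influx in TRPV1-expressing cells, kinetic read (ex 480/em 520 nm). Compound added and read 3 min for agonist activity, followed by capsaicin at EC20 final and 2 min further read for enhancement.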
gsp ag: gsp mutant agonism | Potency, µM (series often up to 76.9 µM), inactives show at the highest dose activation (cAMP increase), hits mostly activators | gsp mutant cells, cAMP HTRF, 30 min; control for the full effect not named in the record | 340,000 tested, 0.13% active; active = well fitted activation curve with a large enough effect; inconclusive = small, poorly fitted or top-dose-only effect, or another doubt; inactive = no such curve, though single readings can be large or run the other way; cell line not stated here;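 further: phosphodiesterase inhibitor Ro 20-1724 added with compounds to block cAMP breakdown; potency means the concentration at half of the fitted maximal effect; nearly all actives have a fitted effect of over 60% in size; about a fifth of the inactives were tested at one dose only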
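Cells in DMEM/10% FBS with G418 were pretreated with compounds in DMSO plus […] (300 uM stock) for 30 min at 37C. cAMP was measured by HTRF (cAMP-d2 plus anti-cAMP antibody-K) after 30 min at room temperature.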
gsp antag: antagonizes gsp, the McCune-Albright syndrome mutation | gsp-mutant cells, cAMP HTRF, 30 min; control for the full effect not named in the record | Potency, µM (series often up to 76.9 µM), for the others: at the top dose activity change, negative = inhibition, most hits filed as inhibitors | 340,000 tested, 0.4% active | AID 624288; active = falling curve of any shape with a large fitted effect; inconclusive = falling curve, mostly with a smaller effect; inactive = flat or rising curve; cell line not stated here;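 further: intracellular cAMP measured with PDE inhibitor Ro 20-1724 present during compound exposure; potency means the concentration at half of the fitted maximal effect; on the % scale 0 is the no-effect control and ±100 the full control effect; nearly all actives have a fitted effect of over 65% in size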
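Cells in G418 medium, seeded 16-24 h, 37C; buffer exchange to DPBS + 1 mM CaCl2, 0.5 mM MgCl2, 0.05% BSA; cpds in DMSO + […] (300 uM stock), 30 min 37C; HTRF cAMP detection.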
Sfp PPTase inh: inhibitors of Bacillus subtilis Sfp phosphopantetheinyl transferase. Q9F4F7. Biochemical Sfp PPTase activity, qHTS. Potency, µM, for inactives: max response, negative = inhibition, actives largely listed as inhibitors. 310,000 tested, 3.5% active. AID 1490; active means well fitted inhibition curve with a large enough effect; inconclusive means small, poorly fitted or top-dose-only effect, or another doubt; inactive means no such curve, though single readings can be large or run the other way;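 further: the enzyme is Sfp with the accession as filed and its product quenches rhodamine fluorescence; potency means the concentration at half of the fitted maximal effect; 0% = enzyme reaction without inhibitor and -100% = no enzyme wells; top concentration of the series not given in the record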
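After 15 min at room temperature with compound, 15 nM Sfp received 5 uM rhodamine-CoA plus 12.5 uM BHQ-2-ybbR (50 mM Hepes pH 7.6, 10 mM MgCl2). Rate came from the fluorescence difference over 30 min, ex 525/em 598 nm.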
ClpP mod: qHTS Assay for Activators of ClpP; ATP-dependent Clp protease proteolytic subunit (Bacillus subtilis (strain 168)), P80244; purified B. subtilis ClpP, FRET peptide cleavage, 20 min; Potency, µM (doses to about 57.5 µM), for the others: at the highest dose activity change, negative = active; 340,000 tested, 1.9% active; AID 651965, 2013; active = well fitted falling curve with a large enough effect; inconclusive = small, poorly fitted or top-dose-only effect; inactive = no such curve, though single readings can be large or run the other way; further: potency means the concentration at half of the fitted maximal effect; the source files actives as falling curves though it sought activators and does not explain the sign; nearly all actives have a fitted effect of over 65% in size; many hits overshoot -100%
Target sequence (P80244 whole entry, looked up): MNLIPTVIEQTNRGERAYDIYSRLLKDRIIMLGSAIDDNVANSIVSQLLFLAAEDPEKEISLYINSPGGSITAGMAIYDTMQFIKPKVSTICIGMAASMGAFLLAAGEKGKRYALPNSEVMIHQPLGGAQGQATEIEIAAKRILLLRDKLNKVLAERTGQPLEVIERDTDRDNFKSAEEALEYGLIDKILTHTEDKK
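Purified B. subtilis ClpP, 10 microg/mL final in Tris/HCl pH8 with KCl, BSA, glycerol and Tween-20, cleaved an Abz/nitrotyrosine-quenched decapeptide. Fluorescence (ex 320, em 430) was read at 0 and 20 min at room temperature. Delta was normalized to 5.8 microM ADEP and DMSO/no-enzyme controls.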
Menin MLL FP FL: displaces fluorescein MLL peptide from human menin. Fluorescence polarization, fluorescein-MLL peptide displacement from menin. FP activity change, % at 61.4 µM. 290,000 tested, under 10 active. AID 1766; inconclusive = falling polarisation curve, or a change in total fluorescence; inactive = total fluorescence flat and polarisation flat or rising; no compound was filed as active; the % refers to the polarisation; negative = inhibition;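 further: % of control where 0% means no effect; inhibitors lower the polarisation; unlabelled MLL peptide was the positive control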
CtBP-E1A inh: CtBP/E1A binding inhibition; AlphaScreen GST-E1A/His-CtBP binding, 1536-well; active compounds read low; control for the full effect not named in the record; activity change, % (concentration not given with the values); 340,000 tested, 0.49% active; in the data active means activity change below about -65%; inconclusive means about -30% to -65%; inactive means above about -30%; further: on the % scale 0 is the no-effect control and ±100 the full control effect
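Protein mix (5X: 125 nM each GST-E1A, His-CtBP) was incubated with pinned compound 2 h at 37 deg C in dark, in 50 mM Tris pH 8.0 buffer with 300 mM NaCl. Glutathione donor and nickel acceptor beads followed; AlphaScreen signal read after 1 h.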
* = called active by the depositor; ? = inconclusive; nt = no result given; & = joins results of further samples; [ ] = dose if it differs, or a comment.

Under each structure – gsp ag	TRPV1 PAM	Sfp PPTase inh	Menin MLL FP FL	ClpP mod	CtBP-E1A inh	gsp antag
Cc1cc(C)c(NC(=O)NC(=O)c2cccc(F)c2)c(C)n1
    -66%[inhibitor]	-1	6%	3.2	-3.5%	1	8%
Cc1cc(C)c2oc(C(=O)NCc3ccccc3)cc(=O)c2c1
    ?	-2	5%	-7.9	-21%	2	-6%
Cc1nc(Cl)sc1C(=O)Nc1ccc(C(C)(C)C)cc1
    -30%	-2	-7%	3.8	nt	12	-8%
CCN(CC)S(=O)(=O)c1cccc(C(=O)NCCCn2ccnc2)c1
    ?	14	10%	1.1	0.8%	-1	14%
CCOC(=O)Nc1ccc2c(CN3C(=O)NC4(CCCC4)C3=O)cc(=O)oc2c1
    18%	0	20%	7.8	66%	0	?
COc1ccccc1Nc1nc(N2CCOCC2)nc(N2CCOCC2)n1
    4%	-12	12%	nt	-0.6%	6	-4%
O=Cc1cn(-c2ccccc2)nc1-c1cc2cc(O)ccc2oc1=O
    -35%[inhibitor]	-6	-8%	19	230%	44	15%
Cc1csc2ncc(C(=O)Nc3ccon3)c(=O)n12
    ?	1	14%	4.3	7.9%	4	4%
COCCN(C(=O)COC(=O)Cc1c[nH]c2ccccc12)c1c(N)n(Cc2ccccc2)c(=O)[nH]c1=O
    18%	-3	nt	nt	-0.8%	5	13%
Cc1cnn(-c2nc(-c3ccccc3)cc(-c3ccccc3)n2)c1
    19%	-7	-27%	-6.7	nt	22	?
COC(=O)C1=C(C(=O)OC)[C@@H]2N(Cc3ccccc3)c3ccccc3[C@@]23C[C@@H](C(=O)OC)N(C(=O)NC(C)(C)C)C3=N1
    -18%	nt	nt	nt	-0.1%	-5	-20%
O=C(CS(=O)(=O)Cc1ccccc1)NCCc1ccc(F)cc1
    7%	0	8%	nt	-2.5%	-24	-10%
CCn1c(SCC(=O)Nc2nc(C)c(C)s2)nnc1-c1cccs1
    19%	3	19%	-0.7	-1.0%	-7	-3%
CSCC[C@H](N)C(=O)N1CCC(C(=O)N[C@H](C)C(=O)NC(C)c2ccccc2)CC1 (stereo not given in full)
    nt	1	8%	-1.6	-2.4%	7	10%
Cc1ccc(Cl)cc1NC(=O)COC(=O)C1CCCC1
    -30%[inhibitor]	-5	10%	-1.0	1.3%	-1	-6%
Cc1cccc(NC(=O)CNC(=O)CN2C(=O)NC(C)(CCC(C)C)C2=O)c1C (stereo not given)
    2%[15.4 µM]	nt	nt	nt	nt	3	5%
COc1cc(C#Cc2c(-c3cncn3C)n(C)c3ccc(-c4cnc(N5CCOCC5)nc4)cc23)cc(OC)c1
    nt	nt	nt	nt	4.7%	-22	5%
COc1ccc(-n2nc(C(=O)NCC(=O)NCC3CCCO3)c3ccccc3c2=O)cc1Cl (stereo not given)
    ?	5	31%[activator]	4.6	-5.5%	-4	6%
CN(CCc1ccccc1)C(=O)c1ccc(NC(=O)Cc2ccc(NC(=O)C3CCN(C(=O)CCc4ccccc4)CC3)cc2)cc1
    nt	nt	nt	nt	1.3%	0	7%
CCCCc1nc2cc(C(=O)N3CCCCC3CCNC(C)=O)ccc2o1 (stereo not given)
    11%	?	8%	nt	-2.5%	-9	1%
Cc1cc(NC(=O)COc2ccc(N(C)S(=O)(=O)c3ccccc3)cc2)no1
    8%	3	-6%	1.5	-1.9%	1	-31%
CC(Sc1ccccc1)C(=O)N/N=C/c1ccccc1 (stereo not given)
    24%	nt	nt	nt	nt	4	6%
CC(=O)c1cccc(S(=O)(=O)NCCC(=O)O)c1
    ?	-3	9%	1.1	nt	9	1%
O=C(Nc1cc(S(=O)(=O)N2CCOCC2)ccc1N1CCOCC1)c1cccc(S(=O)(=O)N2CCCCC2)c1
    -26%	0	16%	1.2	-19%	18	?
COc1ccccc1NC(=O)CSc1nncn1-c1ccccc1
    -5%	0	6%	-0.5	-0.9%	nt	5%
CC1CC(C)CN(CCCNC(=O)CCC(=O)N2CC(C)Oc3ccccc32)C1 (stereo not given)
    -6%	18	12%	-1.8	-2.2%	-9	-1%
COc1ccc(N2C(=O)NC3CC2(C)Oc2ccccc23)cc1 (stereo not given)
    -18%[15.4 µM]	4	13%	-2.1	nt	7	5%
Nc1nc(-c2ccccc2)cn1N
    -1%	6	-5%	1.8	-0.9%	-9	0%[15.4 µM]
CC(C)CNC(=O)CSc1nnc(-c2ccc(Cl)cc2)n1N
    ?	24	5%	0.2	nt	0	4%
Cc1cc(C)c(S(=O)(=O)c2ccccc2C(=O)O)c(C)c1
    -30%[inhibitor]	7	-2%	-0.1	-1.3%	1	11%
COc1ccc(C(=O)CCC(=O)Nc2cccnc2)c(OC)c1
    18%	1	-8%	9.4	nt	-3	-2%
COC(=O)C1=C(C)Nc2c(c(=O)n(C)c(=O)n2C)C1c1cccc(O)c1 (stereo not given)
    -9%	14	17%	3.5	2.1%	-3	16%
c1ccc(C2=Nn3c(nnc3-c3ccco3)SC2)cc1
    -28%	-11	50µM*	0.1	nt	-29	-16%
Cn1c(=O)[nH]c(=O)c2c1nc(N1CCCCC1)n2CC(O)COc1ccc([N+](=O)[O-])cc1 (stereo not given)
    11%	1	-3%	3.2	-4.1%	-15	-6%
Clc1cccc(Nc2nc(-c3ccncc3)cs2)c1
    1%[15.4 µM]	-4	4%	-0.8	11%	-4	?
Cc1ccc(C(=O)N/C(=C\c2ccc(Cl)cc2)C(=O)NCC2CCCO2)cc1 (stereo not given)
    -1%[15.4 µM]	-9	0%	1.6	nt	-10	3%
COc1ccc(-n2nc(C(=O)NCC(=O)NC(C)C)c3ccccc3c2=O)c(OC)c1
    -5%[15.4 µM]	-1	-4%	20	0.6%	17	-9%
COc1ccc(C(CNC(=O)c2cccc(S(=O)(=O)Nc3ccccc3OC)c2)N2CCOCC2)cc1 (stereo not given)
    -3%[15.4 µM]	7	nt	nt	-4.1%	-10	-5%
COc1cc(C(=O)Nc2ccc(OCC(=O)O)cc2)cc(OC)c1OC
    16%	-7	21%	4.4	-1.0%	-1	12%
Cc1ccc(C(=O)OCC(=O)Nc2ccccc2N2CCOCC2)cc1
    -9%	-8	7%	2.2	-1.4%	4	-1%
COc1ccccc1NC1=CC(=O)CC(c2ccccc2)C1 (stereo not given)
    -9%[15.4 µM]	-4	-3%	-2.9	1.4%	4	10%
O=C1C2CC=CCC2C(=O)N1Nc1ccccc1 (stereo not given)
    3%[15.4 µM]	?	13%	-1.0	nt	14	8%
NC(=O)C1CC(O)CN1c1nc(CN2CCOCC2)nc2scc(-c3ccccc3)c12 (stereo not given)
    0%	8	9%	3.5	-6.2%	9	8%
C=CCn1c(=NC(=O)c2cccs2)sc2cc(NC(C)=O)ccc21
    -53%[inhibitor]	-3	-1%	0.0	5.0%	0	2%
O=C(Nc1ccncc1Cl)c1ccncc1
    2%	0	23%	nt	-1.9%	0	1%
CC1CC(C)CN(C(=O)c2ccc3c(c2NCCO)C(=O)c2ccccc2C3=O)C1 (stereo not given)
    -25%	-2	-20%	1.9	-23%	?	-12%
COc1ccc(CCNC(=O)c2nnn(-c3cccc(C)c3)c2N)cc1OC
    5%	3	20%	-0.7	-1.3%	-6	1%
Cc1nn(C)c(C)c1NC(=O)c1ccc(Cl)cc1
    28%	4	11%	4.8	0.1%	-2	8%
CN(C(=O)COC(=O)C1=COCCO1)C1(C#N)CCCCC1
    -4%	-4	nt	nt	-2.6%	-22	7%
O=C(O)c1cccnc1-c1ncccc1C(=O)O
    1%[15.4 µM]	10	?	1.9	-3.3%	-1	16%
CC1(C)CC(=O)C(=Cc2cn(CCC#N)nc2-c2ccc(Cl)cc2)C(=O)C1
    ?	?	79µM*	6.2	2.2%	14	?
CCOC(=O)c1c(NC(=O)COC(=O)c2cccnc2OCC)sc(C(=O)N(CC)CC)c1C
    ?	nt	nt	nt	nt	-17	-6%
Cc1cccc(C)c1NC(=S)N/N=C/c1c(Cl)cccc1Cl
    -2%[15.4 µM]	19	19%	-1.5	nt	1	1%
O=[N+]([O-])c1ncn(C23CC4CC(CC(C4)C2)C3)n1
    -6%[15.4 µM]	-7	14%	-4.9	-1.9%	1	-21%
C=CCOC(=O)C1=C(C)NC(=O)NC1/C=C/c1ccccc1OC (stereo not given)
    -1%	-9	28%	9.9	2.2%	-2	10%
COc1ccc(CCNC(=O)Cc2cccs2)cc1OC
    8%[15.4 µM]	1	25%	-1.8	nt	-4	-3%
CCN(CC)Cc1c[nH]c2c(C(=O)OC)cccc12
    7%	2	21%	1.4	4.1%	-20	5%
CCC/C(=N\NC(=O)CNC(=O)/C=C/c1ccco1)c1ccccc1
    -38%[inhibitor]	2	18%	4.3	-2.2%	-6	3%
O=C(NCCc1ccc(Cl)cc1Cl)C1=CC=CN2CCS(=O)(=O)N=C12
    3%	-2	nt	nt	4.1%	nt	6%
Cc1cccc(N2CCN(C(=O)CCS(=O)(=O)c3ccc4c(c3)oc(=O)n4C)CC2)c1C
    16%	-27	0%	nt	-0.9%&-0.5%	-15	0%
O=c1cc(O)nc(SC23CC4CC(CC(C4)C2)C3)[nH]1
    3%	-5	-11%	0.9	1.4%	2	?
O=C(Nc1ccccc1N1CCN(c2ccc(F)cc2)CC1)c1ccccc1
    -29%	-8	1%	-2.1	-8.8%	0	13%
Cc1c(CC(=O)NCCC(C)C)c(=O)oc2cc3c(cc12)CCC(C)(C)O3
    11%	15	5%	-0.1	nt	12	-22%

Compound activity (PubChem)
